2A firefly: lowers the firefly signal of an FMDV 2A StopGo reporter. AID 1745856. 0.23% of 120,000 active. Potency, µM (doses to about 57.5 µM), without a hit: at the highest dose signal change, negative = less light. HEK cells with a luciferase reporter of 2A StopGo recoding; active = well fitted falling curve with a large enough effect; inconclusive = small, poorly fitted or top-dose-only effect; inactive = no such curve, though single readings can be large or run the other way; further: nearly all actives have a fitted effect of over 60% in size; overnight with compound
2A Renilla: FMDV 2A StopGo reporter, Renilla signal. AID 1745857. HEK cells with a luciferase reporter of 2A StopGo recoding. 0.32% of 120,000 active. Potency, µM (titrated, usually from 57.5 µM), for the others: at the highest dose signal change, negative = less light; active means well fitted falling curve with a large enough effect; inconclusive means small, poorly fitted or top-dose-only effect; inactive means no such curve, though single readings can be large or run the other way; further: nearly all actives have a fitted effect of over 55% in size; overnight with compound
Numbers without * were called inactive; u = inconclusive; & = joins results of further samples; [ ] = another dose, or the depositor's remark. On the % scale 0 is the no-effect control and ±100 the full control effect; potency means the concentration at half of the fitted maximal effect. Only part of the results is shown, so the mix of outcomes need not match the whole.

SMILES | 2A firefly | 2A Renilla
Cc1ccc2[nH]cc(CCNC(=O)c3cccc(F)c3)c2c1 | 0% | 18%
Cc1nc2scc(C)n2c(=O)c1S(=O)(=O)NCCc1ccccc1 | -2% | 181%[activator]
COCCn1c(Cc2ccc(OC)c(OC)c2)n[nH]c1=S | 2% | -8%[1.06 µM]
COc1ccc(Cl)cc1NC(=O)c1ccc2c(c1)CCN2S(C)(=O)=O | u | 20%
Cc1cc(CSc2nnc(-c3ccc(Cl)cc3)n2Cc2ccco2)no1 | 20% | 164%[activator]
Cc1cc(Br)ccc1NC(=O)C(Cc1ccccc1)NS(=O)(=O)c1ccc(Br)s1 (stereo not given) | -9% | 55%[activator]
CCc1ccc2[nH]c(C)c(CN3CCCC(C)C3)c(=O)c2c1 (stereo not given) | 2% | 6%
COc1cccc(CNC(=O)Cc2csc3nc(-c4ccccc4)cn23)c1 | 4% | -4%
COc1cc(OC)cc(C(=O)/C(=C/c2cccs2)c2nc3ccccc3o2)c1 | 0% | 67%[activator]
CC1=C(C(=O)Nc2ccccc2F)C(c2ccccc2)C2=C(CC(C)(C)CC2=O)N1 (stereo not given) | 29% | 120%[activator]
CCOc1ccc(NC(=O)CSc2nc(-c3ccc(OC)cc3)nc3c2Cc2c(CO)cnc(C)c2O3)cc1 | -3% | -11%
COc1ccc(Cl)cc1NC(=O)Cn1c(=O)c2ccccc2n2nncc12 | -21% | -17%
Cc1oc(-c2ccccc2F)nc1Cn1c(SCc2cccc(C(F)(F)F)c2)nc2ccncc21 | 2% | 17%
Clc1ccc(-c2nc(-c3ccc(Br)o3)no2)cc1 | 174%[activator] | 12%
O=C(NCc1cccnc1)c1ccc2nc(-c3ccccc3)c(-c3ccccc3)nc2c1 | -31% | 70%[activator]
COc1ccc(-n2ncc(C(=O)N3CCN(C(=O)c4ccco4)CC3)c2C2CCN(C(=O)OC(C)(C)C)CC2)cc1 | -23% | -12%
CCCc1c(C)nc(Nc2nc(C)c3cc(C)ccc3n2)[nH]c1=O | 24% | 0%
COc1ccc(CN2C[C@]3(C=C4CCCCC4n4c(=O)n(-c5ccccc5)c(=O)n43)N(C(=O)OCc3ccccc3)C2=NC(=O)c2ccccc2)c(OC)c1 (stereo not given in full) | 54%[activator] | 57%[activator]
Cc1[nH]nc2c1C(c1ccc3c(c1)OCO3)SCC(=O)N2 (stereo not given) | 11% | -6%
COc1ccc(NC(=O)CSc2nc(CCSC)c(C)[nH]2)cc1 | -4% | -2%

Shown as labelled records: part of the list above.
O=C(NCc1cccnc1)c1ccc2nc(-c3ccccc3)c(-c3ccccc3)nc2c1
  2A firefly: -31%	2A Renilla: 70%[activator]
COc1ccc(-n2ncc(C(=O)N3CCN(C(=O)c4ccco4)CC3)c2C2CCN(C(=O)OC(C)(C)C)CC2)cc1
  2A firefly: -23%	2A Renilla: -12%
CCCc1c(C)nc(Nc2nc(C)c3cc(C)ccc3n2)[nH]c1=O
  2A firefly: 24%	2A Renilla: 0%
COc1ccc(CN2C[C@]3(C=C4CCCCC4n4c(=O)n(-c5ccccc5)c(=O)n43)N(C(=O)OCc3ccccc3)C2=NC(=O)c2ccccc2)c(OC)c1 (stereo not given in full)
  2A firefly: 54%[activator]	2A Renilla: 57%[activator]

Two compounds drawn at random from those above:
SMILES | 2A firefly | 2A Renilla
Clc1ccc(-c2nc(-c3ccc(Br)o3)no2)cc1 | 174%[activator] | 12%
CCc1ccc2[nH]c(C)c(CN3CCCC(C)C3)c(=O)c2c1 (stereo not given) | 2% | 6%

Further structures follow:
SMILES | 2A firefly | 2A Renilla
NS(=O)(=O)c1ccc(CCNC(=O)C2COc3ccccc3C2)cc1 (stereo not given) | -10% | -9%
COc1ccccc1NC(=O)CN(c1cc(C)cc(C)c1)S(=O)(=O)c1c(C)[nH]c(=O)[nH]c1=O | -13% | 5%
Cc1ccc(NS(=O)(=O)c2cc(C(=O)O)cc3c2CCC3)c(F)c1 | 4% | 69%[activator]
CC(C)C(=O)NC(NCc1ccccc1)C(Cl)(Cl)Cl (stereo not given) | 4% | 4%
COc1cc(OC)cc(C(=O)NC2CCc3ccccc32)c1 (stereo not given) | 2% | 134%[activator]
COc1ccc(S(=O)(=O)N(Cc2nc(-c3ccccc3)no2)C2CCCCC2)cc1 | -14% | 130%[activator]
Cc1ccc(CCNC(=O)CS(=O)(=O)Cc2nc(-c3ccc(C)cc3)oc2C)cc1 | -3% | -10%
Cc1ccc(-c2nc(CS(=O)CC(=O)NCCc3ccccc3)c(C)o2)cc1 (stereo not given) | 100%[activator] | 52%[activator]
COc1cccc(C(=O)NC2CC(=O)N(c3ccc4c(c3)OCCO4)C2)c1OC (stereo not given) | 2% | 3%
O=C(NC1CC1)c1cccc(NS(=O)(=O)c2ccc(Cl)cc2C(F)(F)F)c1 | -7% | -14%
C/C(=N/O)c1ccc(-n2nncc2C23CC4CC(CC(C4)C2)C3)cc1 | 36%[activator] | 16%
O=c1c(Oc2ccccc2)coc2cc(OCc3ccccc3)ccc12 | 124%[activator] | 15%
CC(=O)N1CCCc2cc(S(=O)(=O)Nc3ccc(C)c(F)c3)ccc21 | 3% | 128%[activator]
COc1ccc(NC(=O)COc2ccc(S(=O)(=O)NC3CCCCC3)cc2)c(OC)c1 | -18% | 89%[activator]
COc1cccc(C2CC(=O)Nc3cc(OC)c(OC)c(OC)c32)c1OC(C)C (stereo not given) | 27%&41% | 173%[activator]
CCOC(=O)c1c(-c2ccc(C)cc2)csc1NC(=O)c1cc(=O)c2cc(C)c(C)cc2o1 | -11% | -7%
COc1cccc(-c2noc(-c3cc4cc(Br)ccc4oc3=O)n2)c1OC | 4% | 4%
Oc1ccc(CCNCCCCCCNCCc2ccccc2)cc1O | -20% | u
Cc1cc(NC(=O)CSc2ncc(C(=O)Nc3ccc(F)cc3)c(=O)n2C)no1 | u | -5%
Cc1cc(C)cc(NCc2nnc3n2CCCCC3)c1 | -8% | 1%
Cc1cc(C)c(NC(=O)CN(C)c2nc(CN3CCOCC3)nc3sc(C)c(C)c23)c(C)c1 | -2% | -3%
Cc1ccc(C)c(N2CCN(C(=O)Cn3cnc4onc(-c5ccc(F)cc5)c4c3=O)CC2)c1 | -13% | -14%
O=C(CSc1ncnc2ccccc12)Nc1cccc(F)c1 | 0% | -12%
O=C(CCn1c(=O)oc2cc(S(=O)(=O)N3CCCC3)ccc21)Nc1ccc(OC(F)(F)F)cc1 | 22% | -2%
CNC(=O)c1nn(CN2CCN(Cc3ccc(OC)cc3)CC2)c(=O)c2ccccc12 | 3% | 0%
COCCCNC(=O)c1cnc2sc(N3CCCCCC3)nn2c1=O | -17% | -10%
Cc1ccc(N/N=C/c2ccc(C#N)cc2)cc1 | 199%[activator] | -4%
O=C(NCc1ccnc(OCC(F)(F)F)c1)c1ccc(Cl)o1 | 22% | 2%
O=S(=O)(/C=C/c1ccccc1)NCc1nc2ccccc2s1 | 0% | 105%[activator]
COc1ccc(OC)c(CNS(=O)(=O)c2ccc(-c3cc(C(F)(F)F)on3)s2)c1 | 0% | 0%
Cc1ccc2c(c1)c1c(c(=O)n(-c3ccccc3)c(=O)n1CC(=O)NCCC1=CCCCC1)n2C | -10% | -7%
C=CCSc1nc2c(c(=O)[nH]c(=O)n2C)n1CCc1ccccc1 | -1% | 2%
CCN(CC)S(=O)(=O)NC(C)Cc1ccco1 (stereo not given) | -9% | 12%
CC(C)NCc1ccc(C(=O)O)cc1 | 11% | 1%
CCOc1ccccc1C1CC(=O)NC(C)=C1C(=O)OCc1ccc(C)cc1 (stereo not given) | -7% | 6%
O=C(COc1cc2oc(=O)cc(-c3ccccc3)c2cc1Cl)NCc1cccnc1 | -2% | -9%
CCOC(=O)c1c(NC(=O)COc2ccc(F)cc2)sc2c1CCC(C)C2 (stereo not given) | -20% | -14%
COc1cccc(N2CCN(C(=O)c3nc(-c4ccc(Cl)cc4)n4c3CCCCC4)CC2)c1 | -14% | 7%
COC(=O)CNc1ccccc1C(=O)NCC(F)(F)F | 0% | 8%
COc1ccc2c(CNCc3ccco3)c(C(=O)O)n(Cc3ccccc3)c2c1 | -19% | 18%
O=C(Cn1c(-c2cccs2)cc2cc(F)ccc21)NCCc1ccc(Cl)cc1 | 6% | 6%
COc1ccc(OC)c(-n2cnc3cc(C(=O)NCCc4ccccc4)ccc32)c1 | -9% | -5%
N#CC(C(=O)c1ccc(SC(F)F)cc1)c1ccccn1 (stereo not given) | 40%[activator] | 7%
CCc1ccc(OC(=O)c2cc3cc(Br)ccc3oc2=O)cc1 | 11% | 4%
Cc1cc(Nc2ccccc2)nc(Nc2ccc(NC(=O)c3ccc(Cl)cc3)cc2)n1 | 14µM* | 13µM*
O=C(CCc1c[nH]c2ccccc12)N1CCCCCCC1 | 62%[activator] | 49%[activator]
COc1ccccc1C1CC(c2ccccc2)=NN1C(=O)c1ccccc1 (stereo not given) | -10% | -8%
COC(=O)[C@]12C[C@H](CC(=O)NCCC(C)C)C(=O)N(Cc3cccc4ccccc34)C1=C[C@H](C(C)C)O[C@@H]2C1CC1 | -23% | 69%[activator]
Cn1nc(-c2ccc(OCC(=O)Nc3ccccc3)cc2)c2ccccc2c1=O | u | u
COc1cc(OC)cc(C(=O)NC(C)(C)CC(C)(C)C)c1 | 19% | 34%[activator]
CC(NC(C)(C)C)C(=O)c1cccc(Cl)c1 (stereo not given) | -1%[11.5 µM] | -2%
COc1ccccc1NC(=O)c1ccc(N2CCCN(Cc3ccccc3C)C2=O)cc1 | -12% | -6%
O=C(Nc1ccccc1[N+](=O)[O-])c1csnn1 | 25% | -10%
Cc1ccc(Cl)cc1NC(=O)CSc1nc2c(c(=O)[nH]1)CN(Cc1ccccc1)CC2 | -20% | -7%
CCc1ccccc1-n1nnc(-c2nsc(NC(=O)c3ccc(C)c(C)c3)n2)c1C | u | -10%
Cc1sc2nc(SCc3ccc(Cl)cc3)n(CCCN3CCOCC3)c(=O)c2c1C | -13% | -13%
Cc1cc(C)n(CCc2nc3c4ccccc4nc(N4CCN(c5cccc(C)c5C)CC4)n3n2)n1 | -13% | -10%
CCOc1ccc2ccccc2c1CNCC(O)c1ccccc1 (stereo not given) | -8% | -1%
O=C(NC(c1ccccc1)c1ccc(Cl)cc1)c1ccc[n+]([O-])c1 (stereo not given) | -6% | -7%[1.06 µM]
CCOC(=O)C1CCCN(C(=O)Cn2ncc3c4ccccc4n(Cc4ccc(F)cc4)c3c2=O)C1 (stereo not given) | 9% | 5%

Given as labelled records: entries from further up
Compound: CCOc1ccc2ccccc2c1CNCC(O)c1ccccc1 (stereo not given)
- 2A firefly: -8%
- 2A Renilla: -1%

Compound: N#CC(C(=O)c1ccc(SC(F)F)cc1)c1ccccn1 (stereo not given)
- 2A firefly: 40%[activator]
- 2A Renilla: 7%

Grouped by structure: those above with a COOH group (three)
SMILES | 2A firefly | 2A Renilla
Cc1ccc(NS(=O)(=O)c2cc(C(=O)O)cc3c2CCC3)c(F)c1 | 4% | 69%[activator]
CC(C)NCc1ccc(C(=O)O)cc1 | 11% | 1%
COc1ccc2c(CNCc3ccco3)c(C(=O)O)n(Cc3ccccc3)c2c1 | -19% | 18%

(further entries)
SMILES | 2A firefly | 2A Renilla
Cc1ccc(N(C)S(=O)(=O)c2ccc3c(c2)C(C)(C)C(=O)N3C)cc1C | -7% | 149%[activator]
CN(CC(=O)Nc1cc2[nH]c(=O)[nH]c2cc1Br)Cc1ccccc1N1CCOCC1 | -2% | -7%
O=S(=O)(Nc1cc(F)ccc1F)c1ccc2[nH]c3c(c2c1)CCCCC3 | -6% | 181%[activator]
COc1ccc(Nc2cc(C)c3cc(C)ccc3n2)cc1 | 233%[activator] | 20%
Fc1ccc([C@@H]2Nc3ccccc3[C@@H]3C=CC[C@@H]32)cc1 | 0% | -14%
O=C1CN(C(=O)COc2ccccc2)C(c2ccc(F)cc2)c2cc(Br)ccc2N1 (stereo not given) | -24% | 18%
CS(=O)(=O)c1cccc(-c2nnc(NC(=O)c3ccc4c(c3)OCCO4)o2)c1 | 0% | -5%
Cc1ccc(C)c(Nc2nn3c(=O)c4cc5c(cc4nc3s2)OCO5)c1 | 9% | 8%
CCc1ccc(OCC(=O)Nc2ccc(S(=O)(=O)NC(C)(C)C)cc2)cc1 | -8% | 0%
Cn1c(SCC(=O)N2CCOCC2)ncc(C(=O)Nc2ccccc2)c1=O | 31%[activator] | 2%
O=C(c1cc(=O)c2ccccc2o1)N1CCCC1Cc1ccccc1 (stereo not given) | 86%[activator] | 10%
CCCCCCNC(=O)C(C#N)c1nc2ccccc2nc1N1CCN(c2ccc(F)cc2)CC1 (stereo not given) | -2% | -11%
CCOC(=O)c1c(C)c(-c2ccccc2)n(CC(=O)NC2CCCCCC2)c1C | -10% | -5%
COc1ccc(-c2c3c(=O)n(C)c(=O)n(C)c3c3n2-c2ccccc2NC3c2ccc(O)cc2O)cc1 (stereo not given) | 56%[activator] | 37%[activator]
Cc1cc2c(cc1NS(=O)(=O)c1ccc(Br)cc1)n(C)c(=O)c(=O)n2C | u | 23%
CC(NC(=O)CSc1nc2ccccc2o1)c1ccccc1 (stereo not given) | 41%[activator] | 33%
Cc1ccc(NC(=O)Nc2c(NC3CCCCC3)c3ccccc3oc2=O)cc1F | 18% | 18%
COCCN(CCOC)C(=O)COC(=O)c1ccc(C#N)cc1 | -12% | -5%
